Source: PubChem (Broad Institute)
A1 apoptosis 2: blocks A1, raising caspase activity | AID 2465 | MEF A1-2A-BIM cells, caspase-Glo luminescence, 3 h; percent of clofoctol response, DMSO zero | caspase activation, % (test concentration not listed) | 24,000 tested, under 10 active; in the data active = caspase activation above about 5.9%;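 note: wells of about 30 µL received 50 nL stock; the first replicate is given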
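Material: mouse embryonic fibroblasts co-expressing A1 and BIM (A1-2A-BIM), primed for A1 dependence / Quantity: 2500 cells/well / Buffer or medium: RPMI-1640 growth medium with 10% FBS / Doses: 50 nL compound per well, pinned / Schedule: 3 h compound exposure at 37 °C / Signal: Caspase-Glo luminescence (DEVD substrate) / Measure: Caspase-3/7 activation, seen as rise in luminescence signal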
An asterisk follows results filed as active. This is a subset. The share of hits here may be higher or lower than overall.

SMILES | A1 apoptosis 2
CNC[C@H]1OCCCC[C@@H](C)Oc2ccc(NS(C)(=O)=O)cc2C(=O)N([C@@H](C)CO)C[C@H]1C | -0.6
C[C@@H]1CCCCO[C@H](CN(C)CC2CCCCC2)[C@H](C)CN([C@@H](C)CO)C(=O)c2cc(NS(=O)(=O)c3ccc(Cl)cc3)ccc2O1 | 0.4
C[C@H]1CCCCO[C@H](CN(C)S(=O)(=O)c2cccs2)[C@@H](C)CN([C@@H](C)CO)C(=O)c2cc(NC(=O)CCCN(C)C)ccc2O1 | 0.9
C[C@@H]1CN([C@@H](C)CO)C(=O)c2cccc(NC(=O)Nc3ccccc3)c2O[C@@H]1CN(C)C(=O)Nc1ccc(C(F)(F)F)cc1 | 0.8
C[C@@H]1CN([C@@H](C)CO)C(=O)c2cc(NS(C)(=O)=O)ccc2O[C@H]1CN(C)Cc1ccc(-c2ccccc2)cc1 | -0.3
C[C@H]1CN([C@@H](C)CO)C(=O)Cc2cc(NC(=O)Cc3cn(C)c4ccccc34)ccc2O[C@@H]1CN(C)CC1CCCCC1 | 1.1
Cc1noc(C)c1NC(=O)N(C)C[C@@H]1Oc2ccc(NC(=O)Cn3cnnn3)cc2C(=O)N([C@@H](C)CO)C[C@@H]1C | 0.0
C[C@H]1CN([C@@H](C)CO)C(=O)c2cc(NC(=O)NC3CCCCC3)ccc2O[C@@H]1CN(C)C(=O)Nc1ccc2c(c1)OCO2 | 0.2
COC(=O)N(C)C[C@@H]1OCc2cnnn2CCCC(=O)N([C@@H](C)CO)C[C@@H]1C | 0.0
C[C@H](CO)N1C[C@H](C)[C@@H](CN(C)C)Oc2ccc(NC(=O)C3CCCCC3)cc2C1=O | -0.9
CNC[C@@H]1Oc2ccc(NC(=O)C3CCCCC3)cc2CC(=O)N([C@H](C)CO)C[C@@H]1C | -0.9
COc1ccc(CN(C)C[C@@H]2OCCCC[C@@H](C)Oc3ccc(NC(=O)CCCN(C)C)cc3C(=O)N([C@H](C)CO)C[C@@H]2C)cc1 | 0.1
C[C@@H]1CN([C@@H](C)CO)C(=O)c2cc(NC(=O)Nc3ccc(F)cc3)ccc2O[C@@H]1CN(C)S(=O)(=O)c1cccs1 | -1.3
C[C@@H]1CN([C@H](C)CO)C(=O)CCCn2nncc2CO[C@H]1CN(C)C(=O)Nc1cccc(C(F)(F)F)c1 | 0.9
COc1ccc(NC(=O)N(C)C[C@@H]2Oc3ccc(NS(=O)(=O)c4cccs4)cc3CC(=O)N([C@@H](C)CO)C[C@@H]2C)cc1 | 0.9
C[C@H]1CN([C@@H](C)CO)C(=O)Cc2cc(NC(=O)CCC(F)(F)F)ccc2O[C@H]1CN(C)S(=O)(=O)c1cccs1 | 0.6
C[C@H](CO)N1C[C@H](C)[C@H](CN(C)S(=O)(=O)c2cn(C)cn2)Oc2ccc(NS(C)(=O)=O)cc2C1=O | 0.2
C[C@@H]1CN([C@@H](C)CO)C(=O)Cc2cc(NS(=O)(=O)c3ccc(F)cc3)ccc2O[C@@H]1CN(C)Cc1ccc2c(c1)OCO2 | -0.8
C[C@@H]1CN([C@@H](C)CO)C(=O)c2cc(NS(=O)(=O)c3cccs3)ccc2O[C@H]1CN(C)Cc1ccc2c(c1)OCO2 | 0.3
CC(C)NC(=O)N(C)C[C@@H]1OCCCC[C@H](C)Oc2ccc(NC(=O)Cc3ccccc3)cc2C(=O)N([C@H](C)CO)C[C@@H]1C | 1.0

Six entries from above, ordered by heavy-atom count, largest number first.
SMILES | A1 apoptosis 2
COc1ccc(CN(C)C[C@@H]2OCCCC[C@@H](C)Oc3ccc(NC(=O)CCCN(C)C)cc3C(=O)N([C@H](C)CO)C[C@@H]2C)cc1 | 0.1
C[C@H]1CCCCO[C@H](CN(C)S(=O)(=O)c2cccs2)[C@@H](C)CN([C@@H](C)CO)C(=O)c2cc(NC(=O)CCCN(C)C)ccc2O1 | 0.9
C[C@@H]1CN([C@@H](C)CO)C(=O)c2cccc(NC(=O)Nc3ccccc3)c2O[C@@H]1CN(C)C(=O)Nc1ccc(C(F)(F)F)cc1 | 0.8
C[C@H]1CN([C@@H](C)CO)C(=O)c2cc(NC(=O)NC3CCCCC3)ccc2O[C@@H]1CN(C)C(=O)Nc1ccc2c(c1)OCO2 | 0.2
C[C@@H]1CN([C@@H](C)CO)C(=O)c2cc(NS(C)(=O)=O)ccc2O[C@H]1CN(C)Cc1ccc(-c2ccccc2)cc1 | -0.3
C[C@H](CO)N1C[C@H](C)[C@H](CN(C)S(=O)(=O)c2cn(C)cn2)Oc2ccc(NS(C)(=O)=O)cc2C1=O | 0.2

New compounds follow
SMILES | A1 apoptosis 2
COc1ccc(S(=O)(=O)N(C)C[C@@H]2Oc3c(NS(C)(=O)=O)cccc3C(=O)N([C@@H](C)CO)C[C@@H]2C)cc1 | 0.1
Cc1ccc(S(=O)(=O)Nc2cccc3c2O[C@H](CN(C)C)[C@@H](C)CN([C@@H](C)CO)C3=O)cc1 | 0.2
COc1ccc(NC(=O)Nc2cccc3c2O[C@@H](CN(C)Cc2ccc(Oc4ccccc4)cc2)[C@@H](C)CN([C@@H](C)CO)C3=O)cc1 | -0.9
C[C@@H]1CN([C@H](C)CO)C(=O)c2cccc(NC(=O)c3ccc(-c4nccs4)cc3)c2O[C@H]1CN(C)S(=O)(=O)c1cccs1 | 0.8
C[C@H](CO)N1C[C@H](C)[C@H](CN(C)S(=O)(=O)c2ccc(Cl)cc2)Oc2ccc(NS(=O)(=O)c3cccs3)cc2CC1=O | -0.2
C[C@@H]1CCCCO[C@H](CN(C)C(=O)NC2CCCCC2)[C@@H](C)CN([C@@H](C)CO)C(=O)c2cc(NS(=O)(=O)c3ccccc3)ccc2O1 | -1.6
C[C@@H]1CCCCO[C@H](CN(C)C(=O)Nc2ccc3c(c2)OCO3)[C@H](C)CN([C@H](C)CO)C(=O)c2cc(NC(=O)Nc3ccc(F)cc3)ccc2O1 | 0.0
C[C@H](CO)N1C[C@H](C)[C@@H](CN(C)S(=O)(=O)c2ccc(Cl)cc2)Oc2ccc(NS(=O)(=O)c3ccc(Cl)cc3)cc2C1=O | -0.5
C[C@@H]1CN([C@@H](C)CO)C(=O)c2cc(NS(=O)(=O)c3ccccc3)ccc2O[C@@H](C)CCCCO[C@@H]1CN(C)S(=O)(=O)c1cn(C)cn1 | 1.1
C[C@H](CO)N1C[C@H](C)[C@@H](CN(C)Cc2ccc(C(F)(F)F)cc2)Oc2ccc(NS(=O)(=O)c3ccccc3)cc2C1=O | -0.7
O=C(N/N=C/C(Br)=C/c1ccccc1)c1ccccc1O | -4.7
C[C@@H]1CN([C@@H](C)CO)C(=O)c2cccc(NC(=O)Nc3ccccc3)c2O[C@H]1CN(C)S(=O)(=O)c1ccccc1 | 1.2
C[C@@H]1CN([C@H](C)CO)C(=O)c2cc(NS(C)(=O)=O)ccc2O[C@@H](C)CCCCO[C@@H]1CN(C)Cc1ccc2c(c1)OCO2 | -0.4
COc1ccc(CN(C)C[C@@H]2Oc3ccc(NC(=O)NC4CCCCC4)cc3C(=O)N([C@H](C)CO)C[C@@H]2C)cc1 | -1.3
C[C@H]1CN([C@@H](C)CO)C(=O)c2cc(NC(=O)c3ccncc3)ccc2O[C@H]1CN(C)CC1CCCCC1 | 0.5
C[C@@H]1CN([C@@H](C)CO)C(=O)CCCn2nncc2CO[C@H]1CN(C)S(=O)(=O)c1ccc(F)cc1 | 0.4
C=CCNC(=O)[C@H]1[C@@H]2C(=O)O[C@@H](c3ccccc3)[C@@H](c3ccccc3)N2[C@@H](c2ccccc2OCCO)[C@]12C(=O)Nc1ccc(C#Cc3ccc(OC)cc3)cc12 | -0.3
Cc1noc(C)c1NC(=O)Nc1ccc2c(c1)C(=O)N([C@H](C)CO)C[C@H](C)[C@@H](CN(C)C(=O)C1CCCCC1)OCCCC[C@H](C)O2 | 0.5
Cc1noc(C)c1S(=O)(=O)Nc1ccc2c(c1)C(=O)N([C@H](C)CO)C[C@@H](C)[C@H](CN(C)Cc1ccc(C(=O)Nc3ccccc3N)cc1)O2 | 0.7
Cc1noc(C)c1NC(=O)N(C)C[C@@H]1Oc2ncc(Br)cc2C(=O)N([C@H](C)CO)C[C@@H]1C | 0.9
Cc1ccc(S(=O)(=O)Nc2ccc3c(c2)C(=O)N([C@@H](C)CO)C[C@H](C)[C@H](CN(C)C(=O)NC(C)C)O3)cc1 | -0.9
C[C@H]1CN([C@@H](C)CO)C(=O)c2cc(NC(=O)Nc3ccc(F)cc3)ccc2O[C@@H]1CN(C)Cc1ccncc1 | -0.2
C[C@@H]1CN([C@H](C)CO)C(=O)Cc2cc(NC(=O)c3ccncc3)ccc2O[C@H]1CN(C)Cc1ccc2c(c1)OCO2 | -0.9
CC(C)(C)OC(=O)N1CCC[C@H]1/C=N/NC(=O)c1ccccc1O | 0.2
C[C@H]1CN([C@@H](C)CO)C(=O)c2cccc(NC(=O)C3CCCCC3)c2O[C@@H]1CN(C)Cc1ccc(Cl)c(Cl)c1 | 0.7
COc1ccc(NC(=O)Nc2ccc3c(c2)C(=O)N([C@@H](C)CO)C[C@H](C)[C@H](CN(C)C(=O)Nc2ccc(OC)cc2)OCCCC[C@H](C)O3)cc1 | 0.5
C[C@H]1CN([C@@H](C)CO)C(=O)c2cccc(N(C)C)c2O[C@@H]1CN(C)S(=O)(=O)c1cccs1 | 0.2
C[C@H]1CCCCO[C@@H](CN(C)C(=O)Nc2ccc3c(c2)OCO3)[C@@H](C)CN([C@@H](C)CO)C(=O)c2cc(NS(C)(=O)=O)ccc2O1 | 0.3
C[C@H]1CN([C@@H](C)CO)C(=O)c2cccc(NS(=O)(=O)c3ccccc3)c2O[C@H]1CN(C)Cc1ccc(Oc2ccccc2)cc1 | 0.3
C[C@H](CO)N1C[C@H](C)[C@H](CN(C)Cc2ccccc2C(=O)O)OCc2cn(nn2)CCCC1=O | 0.7
C[C@H]1CN([C@@H](C)CO)C(=O)c2cccc(NC(=O)Nc3ccc(F)cc3)c2O[C@H]1CN(C)Cc1ccc(C(=O)O)cc1 | 1.1
C[C@@H]1CN([C@@H](C)CO)C(=O)c2cc(NS(=O)(=O)c3ccc(F)cc3)ccc2O[C@H]1CN(C)C(=O)Nc1ccc2c(c1)OCO2 | -0.6
C[C@@H]1CCCCO[C@H](CN(C)S(C)(=O)=O)[C@@H](C)CN([C@H](C)CO)C(=O)c2cc(NC(=O)Nc3cccc4ccccc34)ccc2O1 | -0.8
C[C@H]1CN([C@@H](C)CO)C(=O)c2cc(NS(=O)(=O)c3cn(C)cn3)ccc2O[C@H]1CN(C)CC1CCCCC1 | 0.4
C=CCOC(=O)C1=C[C@H](c2cn(C(C)=O)c3ccccc23)[C@@H](CCCO)[C@H](OCC)O1 | 0.1
Cc1noc(C)c1NC(=O)Nc1ccc2c(c1)C(=O)N([C@@H](C)CO)C[C@H](C)[C@H](CN(C)S(C)(=O)=O)O2 | 0.0
C[C@@H]1CCCCO[C@@H](CN(C)S(=O)(=O)c2cn(C)cn2)[C@H](C)CN([C@H](C)CO)C(=O)c2cc(NC(=O)C3CCCCC3)ccc2O1 | 0.4
CNC[C@H]1OCCCC[C@@H](C)Oc2ccc(NC(=O)NC(C)C)cc2C(=O)N([C@H](C)CO)C[C@H]1C | -0.7
C[C@H]1CN([C@@H](C)CO)C(=O)Cc2cc(NC(=O)Nc3ccccc3)ccc2O[C@@H]1CN(C)S(=O)(=O)c1ccc(Cl)cc1 | 0.4
Cc1noc(C)c1NC(=O)N(C)C[C@H]1Oc2c(NC(=O)c3ccc(-c4nccs4)cc3)cccc2C(=O)N([C@H](C)CO)C[C@H]1C | 0.0

Retrieved by structure from the entries so far (2):
SMILES | A1 apoptosis 2
C[C@@H]1CN([C@H](C)CO)C(=O)Cc2cc(NC(=O)c3ccncc3)ccc2O[C@H]1CN(C)Cc1ccc2c(c1)OCO2 | -0.9
CNC[C@H]1OCCCC[C@@H](C)Oc2ccc(NC(=O)NC(C)C)cc2C(=O)N([C@H](C)CO)C[C@H]1C | -0.7

(cont.)
SMILES | A1 apoptosis 2
C[C@H](CO)N1C[C@H](C)[C@@H](CN(C)Cc2ccncc2)Oc2c(NC(=O)Nc3ccccc3)cccc2C1=O | 0.7
C[C@H](CO)N1C[C@H](C)[C@@H](CN(C)Cc2ccncc2)Oc2ccc(NC(=O)C3CCCCC3)cc2CC1=O | -0.5
C[C@@H]1CN([C@H](C)CO)C(=O)c2cc(N(C)C)ccc2O[C@@H](C)CCCCO[C@@H]1CN(C)C | -0.5
C[C@@H]1CN([C@H](C)CO)C(=O)c2cc(NC(=O)Nc3cccc4ccccc34)ccc2O[C@H]1CN(C)Cc1ccncc1 | -0.5
CC(C)=CCC[C@@H](C)C/C=N/NC(=O)CCCCC(=O)NO | 0.2
C[C@H]1CN([C@@H](C)CO)C(=O)c2cc(NC(=O)C3CCCCC3)ccc2O[C@H]1CN(C)Cc1ccc(C(=O)O)cc1 | 0.4
CC(C)NC(=O)Nc1ccc2c(c1)C(=O)N([C@H](C)CO)C[C@H](C)[C@H](CN(C)S(=O)(=O)c1ccc(Cl)cc1)OCCCC[C@H](C)O2 | -1.4
C[C@H](CO)N1C[C@H](C)[C@H](CN(C)C)Oc2c(NC(=O)Nc3ccc4c(c3)OCO4)cccc2C1=O | 1.3
CC(C)NC(=O)Nc1ccc2c(c1)C(=O)N([C@@H](C)CO)C[C@H](C)[C@H](CN(C)C(=O)NC1CCCCC1)OCCCC[C@@H](C)O2 | 0.9
C[C@H]1CN([C@@H](C)CO)C(=O)c2cc(NC(=O)Cc3ccccc3)ccc2O[C@H]1CN(C)C(=O)Nc1ccc2c(c1)OCO2 | 0.4
C[C@H](CO)N1C[C@H](C)[C@@H](CN(C)C(=O)Nc2ccc3c(c2)OCO3)Oc2ccc(NS(=O)(=O)c3cccs3)cc2C1=O | 0.3
Cc1noc(C)c1S(=O)(=O)Nc1ccc2c(c1)C(=O)N([C@H](C)CO)C[C@H](C)[C@@H](CN(C)S(C)(=O)=O)O2 | 1.2
